# Bioassay records deposited in PubChem BioAssay by Johns Hopkins Ion Channel Center.
# KCNQ2 pot: KCNQ2 (rat) channel potentiation. AID 2239. B-score at 10 µM. O88943. 310,000 compounds, 0.54% hits. CHO-K1 KCNQ2, FluxOR thallium flux fluorescence; active compounds read high;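 active = fluorescence ratio B-score at least 3 SD of library B-scores, with initial fluorescence B-score within 3 SD, cut at about 5.3 in these data; same plate scores as AID 2156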;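 also: B-score of peak minus minimum over baseline fluorescence ratio after K+ and Tl+ stimulus; positive B-score means potentiation of KCNQ2 with more thallium influx and brighter signal; only the inactives scoring about 0 or higher are listed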
# Target sequence (O88943 whole entry, looked up): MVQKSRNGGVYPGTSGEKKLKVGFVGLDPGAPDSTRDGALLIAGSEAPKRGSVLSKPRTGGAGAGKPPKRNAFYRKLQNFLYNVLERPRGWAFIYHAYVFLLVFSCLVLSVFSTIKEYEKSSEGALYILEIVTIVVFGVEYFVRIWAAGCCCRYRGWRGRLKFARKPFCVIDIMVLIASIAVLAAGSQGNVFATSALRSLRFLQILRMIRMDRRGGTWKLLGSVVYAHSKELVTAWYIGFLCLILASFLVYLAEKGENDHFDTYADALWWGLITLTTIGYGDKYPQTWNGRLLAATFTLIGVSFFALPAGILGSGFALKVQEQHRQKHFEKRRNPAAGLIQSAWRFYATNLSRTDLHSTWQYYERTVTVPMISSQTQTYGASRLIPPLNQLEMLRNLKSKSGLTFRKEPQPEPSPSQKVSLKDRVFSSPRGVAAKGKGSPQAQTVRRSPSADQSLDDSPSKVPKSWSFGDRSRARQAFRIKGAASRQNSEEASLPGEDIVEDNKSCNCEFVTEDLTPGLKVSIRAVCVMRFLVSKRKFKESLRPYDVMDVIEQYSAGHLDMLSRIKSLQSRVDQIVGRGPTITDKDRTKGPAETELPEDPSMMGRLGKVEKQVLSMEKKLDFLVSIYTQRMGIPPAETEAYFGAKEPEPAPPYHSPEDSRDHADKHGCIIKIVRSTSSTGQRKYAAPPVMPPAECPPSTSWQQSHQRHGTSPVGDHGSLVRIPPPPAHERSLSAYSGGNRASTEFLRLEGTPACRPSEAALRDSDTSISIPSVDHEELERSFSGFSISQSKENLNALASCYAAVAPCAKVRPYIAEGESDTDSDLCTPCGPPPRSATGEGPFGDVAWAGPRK
# KCNQ2 pot baseline: further read-out of KCNQ2 pot, marked with its call; B-score; compound at 10 µM; measured here: initial fluorescence intensity artifact check;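 brightness before thallium and not channel activity; 0 = typical well and far values either way flag optical interference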
# Starred values were filed as active, the others as inactive. Only part of the results is shown; the hit share may differ from the screen's.
SMILES,KCNQ2 pot,KCNQ2 pot baseline
Cc1cc(NC(=O)C2CCCCC2)n(-c2nc3ccccc3[nH]2)n1,1.69,0
O=c1c(-c2ccc(Cl)cc2)[n+]([O-])c2ccccc2n1O,6.29*,3.34*
CCn1cc(/C=C(\NC(=O)c2ccccc2OC)C(=O)NCCCN2CCOCC2)c2ccccc21,0.39,1.94
COc1cccc(C2C(C#N)=C(N)Oc3cc(C)[nH]c(=O)c32)c1OC (stereo not drawn),1.01,-0.52
CCSc1nnc(NC(=O)c2cc(C)oc2C)s1,0.22,-0.4
CC(C(=O)NC1CCS(=O)(=O)C1)N1C(=O)/C(=C/c2ccc(Cl)cc2)SC1=S (stereo not drawn),1.58,-0.61
Cc1nn(Cc2c(F)cccc2Cl)c(C)c1NC(=O)C1CC1,0.75,0.46
Cc1c(-c2n[nH]c(=S)n2-c2ccc(Br)cc2)nnn1-c1ccc(Cl)cc1,0.08,-2.42
CC(=O)c1ccc(C(=O)Nc2ccc3c(c2)C(=O)NC3=O)cc1,0.27,-0.87
Nc1cccc(-c2nnc3n2CCCCC3)c1,0.1,-0.43
CCn1c(SCc2nc3cc(OC)c(OC)cc3c(=O)[nH]2)nnc1-c1ccncc1,0.24,-1.79
Cn1c(=O)c2c(nc(CN3CCN(c4ccccc4)CC3)n2CCCc2ccccc2)n(C)c1=O,0.1,-0.34
COCCNC(=O)CSc1ccc(C)cc1,0.69,-0.37
CC(C)NC(=O)c1ccc(CSCc2ccccc2Cl)o1,1,1.49
CC(=O)c1cccc(NC(=O)CCc2nc3sc4c(c3c(=O)[nH]2)CCCC4)c1,0.43,-1.14
CCCC(=O)Nc1c2c(nn1-c1ccc(F)cc1)CS(=O)(=O)C2,0.06,0.74
CCCCNC(=O)C1=C(N)C(C(=O)Nc2ccc(C)c(S(=O)(=O)N3CCCCC3)c2)SC1=Nc1ccc(C)cc1C (stereo not drawn),0.32,0.03
Cn1c(=O)[nH]c(=O)c2c1nc(SCC(=O)O)n2CCOc1ccccc1,0.86,2.14
CNC(=O)Nc1cc(C)nn1C,1.09,-1.27
Cc1ccccc1CSCCC(=O)NCCc1ccccc1,0.46,0.18
CC1=C(C(=O)OCC2CCCO2)C(c2ccccc2)C2=C(CC(C)(C)CC2=O)N1 (stereo not drawn),1.53,2.57
O=C1CCCCCCCCCC/C(=N\O)CCCO1,0.12,0.53
CC1CCN(C(=O)c2ccc(NC(=O)CC3SC(N4CCCC4)=NC3=O)cc2)CC1 (stereo not drawn),0.36,-0.4
CC1CCCC(C)N1C(=O)CSc1nc(N)c(-c2ccccc2)c(=O)[nH]1 (stereo not drawn),1.36,-0.39
CC(C)n1c2ccccc2c2nnc(SCC(=O)OCN3C(=O)c4ccccc4C3=O)nc21,0.05,-0.9
NC(=O)C1CCN(C(=O)c2ccc(CS(=O)(=O)c3c(Cl)cccc3Cl)o2)CC1,0.24,0.21
COCCN(C(=O)COC(=O)c1cc2c(s1)CCCC2)c1c(N)n(Cc2ccccc2)c(=O)[nH]c1=O,0.31,0.59
CC(=O)NC1=NN(C(C)=O)C(c2cccc([N+](=O)[O-])c2)S1 (stereo not drawn),0.49,0.9
CC1CC(C)(C)CC2(C1)NC(=O)N(CC(=O)Nc1nccs1)C2=O (stereo not drawn),1.1,-0.61
COc1ccccc1C(=O)C1CCCN(C(=O)CCn2cnnn2)C1 (stereo not drawn),0.66,0.55
COc1ccc(C2CC(=O)c3cnc(N4CCc5ccccc54)nc3C2)cc1OC (stereo not drawn),0.87,1.63
Cc1ccccc1C(=O)N1CCN=C1SCc1ccc([N+](=O)[O-])cc1,0.67,-0.38
O=C(Nc1ccc(F)cc1)Nc1ccc2c(c1)CCC2,2.33,-0.45
CC(=O)[C@@]1(O)[C@H](C)CC2C3CC=C4CC(OP(=O)(O)O)CC[C@]4(C)C3CC[C@@]21C (stereo partly drawn),0.25,0.98
COc1ccc(CCC(=O)N(C)CC(=O)Nc2cc(C)ccc2C)cc1,0.28,-0.69
O=C(NC(Cc1c[nH]c2ccccc12)C(=O)O)c1ccc2c(c1)OCO2 (stereo not drawn),0.87,-0.05
Cc1nnc2n(c1=O)N=C(c1ccc(Cl)cc1)CS2,0.57,-0.8
Cc1c(C(=O)O)sc2c1c(=O)n(Cc1ccccc1)c(=O)n2C,1.55,0.03
CCC(=O)Nc1cnc(NC(=O)c2cccc(F)c2)cc1C,0.3,-0.46
COc1ccc(CCN2C(=O)C3CC(C)=C(C)CC3C2=O)cc1OC (stereo not drawn),1.06,-0.08
O=C(O)CCC(=O)N1CCN(c2ccccn2)CC1,0.64,-0.44
CC(C)c1nnc(NC(=O)CCC(=O)NCc2ccc3c(c2)OCO3)s1,0.41,-0.34
Cc1c(NC(=O)c2ccc(COc3ccc4ccccc4c3)o2)c(=O)n(-c2ccccc2)n1C,0.92,0.03
COc1ccc(NC(=O)CSc2nc3ccc(OC)cc3[nH]2)cc1,0.79,0.15
FC(F)(F)c1ccccc1CN1CCN(C2CCCCCC2)CC1,0.04,-1.07
CCOc1cccc(-c2nn3c(-c4cc(C)[nH]n4)nnc3s2)c1,0.24,0.48
O=C(Cc1ccccc1)Nc1cc2c(cc1Cl)OCCCO2,4.58,0.22
O=C(CSc1nnc(COc2ccccc2)o1)N1CCCCC1,0.71,0.35
CNC(=O)c1sc(-c2ccccn2)nc1C,0.5,-0.08
O=C(CN1CCC(NC(=O)c2ccccc2)CC1)NCc1ccccc1F,0.55,0.56
# Going on with the list:
SMILES,KCNQ2 pot,KCNQ2 pot baseline
CSc1ccc(S(=O)(=O)NCC(=O)OCC(=O)NCc2ccco2)cc1[N+](=O)[O-],0.63,-1.02
O=C(O)c1ccc(N2C(=O)CC(N3CCC(c4nc5ccccc5[nH]4)CC3)C2=O)cc1 (stereo not drawn),1.05,-0.5
O=C(O)c1ccc(-n2cc(C(=O)c3ccccc3O)cn2)cc1,0.26,-1.9
NS(=O)(=O)c1ccc(CCNC(=O)CC(NC(=O)c2ccccc2Cl)c2ccccc2)cc1 (stereo not drawn),0.1,0.03
COc1cccc(N2CCN(CC(=O)C34CC5CC(CC(C5)C3)C4)CC2)c1,0.61,0.47
CC(OC(=O)c1nsc(Cl)c1Cl)C(=O)NCc1ccc2c(c1)OCO2 (stereo not drawn),0.03,0.03
CC(=O)N(c1ccccc1)c1ccc([N+](=O)[O-])cc1[N+](=O)[O-],0.23,0.52
O=C(/C=C/c1ccccc1)NNC(=O)c1cccs1,0.23,0.03
COc1ccc2c(c1)[nH]c1c(=O)n(/N=C/c3ccc(OC)c(COc4ccccn4)c3)cnc12,0.59,0.32
O=C(CS(=O)(=O)c1ccccc1)Nc1ccc(Br)cn1,0.58,0.56
O=C(CSc1nnnn1-c1cccnc1)Nc1ccccc1F,0.01,-0.87
Cc1cc(C)n(C(=O)CCCn2cc([N+](=O)[O-])cn2)n1,2.15,-0.83
Cc1ccc(C)n1C(Cc1ccccc1)C(=O)O (stereo not drawn),1.47,-1.39
Cc1cccc(NC(=O)NC(C)CCc2ccccc2)c1 (stereo not drawn),1.39,-0.46
CCC1(c2ccc(Cl)cc2)NC(=O)N(CC(=O)NCc2ccc(F)cc2)C1=O (stereo not drawn),0.06,0.28
CC(=O)NC(Cc1ccccc1)C(=O)N1CCN(C(=O)c2ccco2)CC1 (stereo not drawn),0.19,0.01
O=C1N/C(=C/c2cccs2)C(=O)N1Cc1ccccc1F,0.8,0.57
Cc1ccc(-c2cc(C(=O)NCc3ccccn3)no2)cc1,1.5,-1.14
O=C(CCN1N=C(c2ccccc2)CCC1=O)NCC1COc2ccccc2O1 (stereo not drawn),1.14,0.03
CCCCOc1ccc(C(CC(=O)NC)C(=O)O)cc1 (stereo not drawn),1.33,1
O=C(CCc1c[nH]c2ccccc12)Nc1ccc(S(=O)(=O)Nc2ncccn2)cc1,0.81,0.17
Clc1ccc(-n2ncc3c(NCc4ccccn4)ncnc32)cc1,0.69,0.06
Cc1cccc(Nc2ccc([N+](=O)[O-])cc2C(=O)O)c1,2.65,-2.04
CCOC(=O)C(C)(C)C(=O)C(C)(C)C(O)c1ccccn1 (stereo not drawn),0.3,-1.29
Cc1cccn2c(CN3CCCC(c4ccccc4)C3)c(C(=O)N3CCOCC3)nc12 (stereo not drawn),0.58,1.05
O=C(COC(=O)C1=COCCO1)NC(=O)c1ccc(OC(F)F)cc1,1.1,-0.61
O=C(Cn1c(-c2cscn2)nc2ccccc21)Nc1ccccc1F,0.48,-0.4
CN(CC(=O)N1CCCCC1)S(=O)(=O)c1cccc2cccnc12,1.04,-3.98
O=C1OCCC1Sc1ncnc2sccc12 (stereo not drawn),1.84,-1
O=C(CSc1ccc2nnc(-c3ccccn3)n2n1)N1CCOCC1,0.3,0.45
NC(=O)Cc1nc(-c2ccc(Br)cc2)cs1,0.46,0.17
C=CCOCCN(CCOCC=C)C1=NS(=O)(=O)c2ccccc21,1.06,-1.32
Cc1cccc(N(C(=O)c2snc(C(N)=O)c2N)C(C)C(=O)NCC2CCCO2)c1 (stereo not drawn),0.53,-2.08
O=C(NCc1ccccc1)c1c[nH]c2ccccc2c1=O,1.51,-2.46
CC1CCCCN1C(=O)CCNS(=O)(=O)c1ccc2c(c1)c(=O)n(C)c(=O)n2C (stereo not drawn),0.38,0.57
COc1ccccc1NC(=O)COC(=O)C1CCN(/C=C/C(=O)C(F)(F)F)CC1,0.56,0.19
O=C(O)c1cc2c(s1)-c1ccccc1CC2,0.17,0.01
N=C1N(/N=C/c2ccccc2)C(=Nc2ccccc2)C(=S)N1c1ccccc1,1.01,-2.67
Cc1cc(Cl)c(OCCCNC2CCCC2)c(Br)c1,2.86,0.68
CC(=O)NC1=NN(C(C)=O)C(c2sccc2C)S1 (stereo not drawn),1.97,-0.54
COc1cccc(NC(=O)c2cnc(SC)nc2C)c1,1.12,-1.77
CCSc1nnc(NC(=O)C(NC(=O)c2ccc(Cl)cc2)C(C)C)s1 (stereo not drawn),0.58,-0.2
COCCCC1CCN(C(=O)c2cc(COc3ccc(C)nc3)on2)CC1,0.25,1.49
O=C(NNC(=O)c1nc(Cl)ccc1Cl)c1ccc(F)cc1,0.02,-0.08
CSc1ccc(NC(=O)Nc2ccc(C(=O)NCC(=O)O)cc2)cc1,0.62,0.36
Cc1cccc(-n2c(N)cc(=O)nc2SCC(=O)Nc2ccccc2)c1,0.17,0.86
CCOC(=O)c1cnc2ncnn2c1N,0.92,2
CCCCNC(=O)N1CCN(c2ccnc3cc(Cl)ccc23)CC1,1.01,1.35
O=C(NC1CCCCC1)C(c1ccccn1)N(C(=O)c1csnn1)c1ccccc1 (stereo not drawn),0.45,1.04
CCCOc1ccc(CCC(=O)O)cc1,0.92,-1.57
# Next results
SMILES,KCNQ2 pot,KCNQ2 pot baseline
CCN(CC)c1ccc(/C=N/Nc2nc(C)cc(C)n2)cc1,0.7,0.97
Cc1ccc(OCCSc2cc(C)nc(N)n2)cc1,0.04,-0.42
CC(C)NC(=O)COc1ccc(Cl)cc1Cl,0.46,-2.44
N#Cc1ccc(C(=O)CSc2n[nH]c(=O)n2Cc2ccco2)cc1,0.12,1.09
O=C(NCCN1CCCCCC1)C1CCC(CNS(=O)(=O)c2cccc3cccnc23)CC1 (stereo not drawn),0.11,1.25
S=c1[nH]nc(COc2ccccc2)n1/N=C/c1ccc(Br)s1,0.95,-1.94
COc1ccc(S(=O)(=O)N(CC(=O)NC2CC2)Cc2ccccc2)cc1,0.2,-0.99
Clc1cccc(Cl)c1Cn1cc(Br)cn1,1.19,-0.87
Cc1cc(S(=O)(=O)N2CCCC(N3CCOCC3)C2)c(C)cc1Cl (stereo not drawn),0.92,-1.1
CCOC(=O)C(C)S(=O)(=O)c1ccc(C(F)(F)F)cn1 (stereo not drawn),0.62,-1.27
N#Cc1ccccc1NC(=O)CN1CCOCC1,0.86,-0.21
Cc1cccc2c(=O)c(C(=O)N3CCCCCC3)c[nH]c12,0.58,-0.34
Nc1c(C(=O)O)cnn1-c1ccccc1,0.9,0.02
CNC(=S)NNC(=O)c1ccc(=O)n(Cc2cccc(C(F)(F)F)c2)c1,1.18,0.7
Clc1ccc(-c2ccn[nH]2)cc1,0.25,1.39
CCCCOc1ccc(CSc2nc(C)[nH]c2[N+](=O)[O-])cc1[N+](=O)[O-],1.96,0.09
C=CC[N+](C)(C)CC(=O)OCc1ccccc1,0.03,-0.92
O=C1c2ccccc2OCOc2ccccc21,0.24,-0.26
